Biofilm kill mix = mixtures killing C. albicans biofilm | 120,000 tested, 0.02% active | inhibition, % at 7.6 µM | C. albicans biofilm persisters + clotrimazole, fluorescence viability; primary screen in compound mixtures of four per well | AID 1242;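 active = inhibition above 30.3% in the primary screen of four-compound pools, then above 30% when the compound was retested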;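 note: compounds exposed to preformed 24 h biofilms for 48 h; the number belongs to the whole pool; some results filed as inactive read as strong as hits; inactives centre near 12; 0% = biofilm with clotrimazole alone and 100% = kill control; retested singly at about 60 µM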
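Assay system: C. albicans biofilms / Medium: RPMI/MOPS medium, pH 7.0 / Schedule: biofilm formation 24 h, compound exposure 48 h, 37 °C / Measured by: Alamar Blue fluorescence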
Numbers without * were called inactive. Some of the compounds tested. The share of hits here may be higher or lower than overall.

SMILES	Biofilm kill mix
CCN(Cc1ccccc1)C(=O)Cn1c(C(C)O)nc2ccccc21 (centres undefined)	10
CCC(C)NC(=O)/C=C/c1ccc(S(=O)(=O)NCc2ccco2)cc1 (centres undefined)	10
Cc1ccc(OCC(=O)Nc2ccccc2[N+](=O)[O-])c(Br)c1	10
O=C(Nc1ccc2oc(-c3ccncc3)nc2c1)c1ccc2c(c1)OCCO2	18
CCOC(=O)C1(CCCc2ccccc2)CCN(C(=O)C2CCCN(C(N)=O)C2)CC1 (centres undefined)	9
Cc1ccccc1-c1nc2ccccc2[nH]1	-3
Clc1ccc(OC2CCN(Cc3nc(CC4CC4)no3)CC2)cc1	28
Cc1cc(C)cc(-c2nnc(SCc3ccc(C(=O)O)cc3)o2)c1	-4
Cc1ccccc1Oc1ccccc1N	13
COC1CCN(C(=O)CC2C(=O)NCCN2CC(C)(C)C)CC1 (centres undefined)	-11
Cc1cc(C(=O)N2CCC(C)CC2)on1	21
CCC(=O)n1nc(-c2ccc(Cl)cc2)nc1SC	-6
COc1ccc(/C=C/C(=O)Nc2cc(C)nn2-c2nc3ccccc3n2Cc2cccc([N+](=O)[O-])c2)cc1	15
Cc1cccc(NS(=O)(=O)c2ccc3[nH]c(=O)cc(C(=O)OC(C)C(=O)Nc4ccc([N+](=O)[O-])cc4)c3c2)c1 (centres undefined)	10
O=C(Cn1nc(C(=O)O)c2ccccc2c1=O)Nc1nc(-c2ccccc2)cs1	15
Cc1cc(Nc2cccc(C)c2C)n2ncnc2n1	14
CCCCNC(=O)C1CCN(S(=O)(=O)N2CCOCC2)CC1	11
Cc1ccc(-c2nn3cnnc3c3ccccc23)cc1	11
Cc1ccc(CSCCNC(=O)CSc2ccccc2)cc1	11
Cc1nn(CC(=O)Nc2c(C)n(C)n(-c3ccccc3)c2=O)c(C)c1[N+](=O)[O-]	7
CCn1cc(C2=NC(c3ccccc3)CO2)c2ccccc21 (centres undefined)	18
O=C(CSc1nc(-c2ccc(F)cc2)nc2c1Cc1ccccc1O2)Nc1ccc(C(=O)O)cc1	17
O=C(Nc1ccc(F)c(F)c1)c1oc2ccccc2c1NC(=O)C1CCCO1 (centres undefined)	9
CCOC(=O)C1(Cc2ccc(OC)cc2)CCN(C(=O)C2=CCCC2)CC1	4
NC(=O)[C@H]1CC2(CC(c3cccc(NC(=O)COc4ccc(Cl)cc4)c3)=NO2)CN1C(=O)CC(c1ccccc1)c1ccccc1 (some centres undefined)	-2
O=C1CC(C(=O)Nc2ccccc2)S/C(=N\N=C\c2ccco2)N1 (centres undefined)	22
COc1ccc(/C=C2\Sc3ccc(C(=O)NCc4cccnc4)cc3N(C)C2=O)cc1OC	4
COCCNC(=S)N(CCc1c(C)[nH]c2ccc(C)cc12)Cc1ccco1	3
CCN(CC)CCCNC(=O)CCC(=O)NNc1nc2ccccc2c2nc(C)nn12	20
C=CCNC(=S)Nc1ccc(Cl)cc1F	11
O=C(N/N=C\c1ccc(Cl)s1)c1ccc(Cn2cccn2)o1	5
CC(O)CNc1nc2ccccc2n1CC(=O)NC12CC3CC(CC(C3)C1)C2 (centres undefined)	11
Cc1c(NC(=O)C(CC(=O)O)NCc2ccco2)c(=O)n(-c2ccccc2)n1C (centres undefined)	7
O=C(NCc1ccccc1)C(=O)NCC1OCCN1S(=O)(=O)c1ccc2c(c1)OCCO2 (centres undefined)	8
CCOc1ccc(S(=O)(=O)N2CCOCC2)cc1[N+](=O)[O-]	13
Cc1cc(C(=O)N/N=C/c2c(C)nn(-c3ccccc3)c2C)n[nH]1	10
O=c1cnnc(Nc2cccc(C(F)(F)F)c2)[nH]1	14
O=C(CSc1nncn1-c1ccccc1)NC1CCCCC1	16
O=C(NN1C(=O)C2C3C=CC(C3)C2C1=O)C(O)c1ccccc1 (centres undefined)	13
O=c1nc(-c2ccccc2)nc(-c2ccccc2)[nH]1	13

An excerpt of these results, as a markdown table:
| SMILES | Biofilm kill mix |
| --- | --- |
| COc1ccc(/C=C2\Sc3ccc(C(=O)NCc4cccnc4)cc3N(C)C2=O)cc1OC | 4 |
| O=C(NN1C(=O)C2C3C=CC(C3)C2C1=O)C(O)c1ccccc1 (centres undefined) | 13 |
| CCN(CC)CCCNC(=O)CCC(=O)NNc1nc2ccccc2c2nc(C)nn12 | 20 |
| O=c1cnnc(Nc2cccc(C(F)(F)F)c2)[nH]1 | 14 |

A few values from above.
Biofilm kill mix, Cc1ccccc1-c1nc2ccccc2[nH]1 is entered as -3
Biofilm kill mix, COC1CCN(C(=O)CC2C(=O)NCCN2CC(C)(C)C)CC1 (centres undefined) is entered as -11
Biofilm kill mix, COc1ccc(/C=C/C(=O)Nc2cc(C)nn2-c2nc3ccccc3n2Cc2cccc([N+](=O)[O-])c2)cc1 is entered as 15
Biofilm kill mix, O=C(Nc1ccc2oc(-c3ccncc3)nc2c1)c1ccc2c(c1)OCCO2 is entered as 18

(further entries)
SMILES	Biofilm kill mix
CC(C)(C)C(=O)Nc1cccc2[nH]ncc12	8
COc1ccc(C(=O)NCC(=O)NCCc2c[nH]c3ccccc23)cc1OC	11
COc1ccc2nc(NC(=O)c3cccnc3SC)sc2c1	14
COc1ccc(/C=N/NC(=O)CCc2nc3ccccc3[nH]2)cc1	15
O=C1c2ccccc2C(=O)N1CN(C(=O)COc1ccc(Cl)cc1Cl)c1cccc(F)c1	2
O=C(CN1CCN(c2ncccn2)CC1)N1CCCC1	18
CN(C)CC(C)(C)CNS(=O)(=O)c1ccc(Cl)s1	-11
CC(C)C(=O)NNc1ccccc1	15
Cc1nc(-c2ccc(-n3nncc3-c3ccco3)cc2)cs1	26
O=[N+]([O-])c1ccc(O)c(Nc2ncnc3ccccc23)c1	7
Cc1ccc(-n2c(=S)[nH]c3c(oc4ccccc43)c2=O)cc1	-3
C/C(=N\NC(=O)C(N)=O)c1ccc(Br)cc1	21
Cc1ccc(NC(=O)C2CC(=O)Nc3ncnn32)c(C)c1 (centres undefined)	18
CC1(C)C2CCC1(CS(=O)(=O)Nc1cccc(S(N)(=O)=O)c1)C(=O)C2 (centres undefined)	9
COc1ccc(-c2n[nH]c(=S)n2/N=C/C=C/c2ccccc2OC)cc1	13
COc1ccc2c(Cl)c(C(=O)N/N=C/c3c(C)[nH]c4ccccc34)sc2c1	7
COc1ccc(C(CC(=O)Nc2ccccc2OC)n2cccc2)cc1 (centres undefined)	10
CC1CCCN(CCOCCSc2ccccc2)C1 (centres undefined)	15
Cc1ccc(S(=O)(=O)Nc2cc(-c3ccccc3)nn2C)cc1Cl	-4
CCOC(=O)C1=C(CS(=O)(=O)c2ccc(C)c(C)c2)NC(=O)NC1c1ccc(O)cc1 (centres undefined)	5
Cc1nc(N2CCC(C)CC2)c2c(C)c(C(=O)Nc3ccc(C(F)(F)F)cc3)sc2n1	17
Cc1ccc(-n2cccn2)c(CN2CCCC(C(=O)c3ccc4c(c3)OCO4)C2)c1 (centres undefined)	17
CC(=O)Nc1ccc(OCC(=O)NCCc2ccc(Cl)cc2)cc1	23
CCCCc1nnc(NC(=O)C2CC(=O)N(c3ccc4c(c3)OCCO4)C2)s1 (centres undefined)	17
COc1ccc(NC(=O)CNC(=O)Cn2c(C)cc3ccccc3c2=O)c(OC)c1	11
O=C1OC(c2ccccc2)=N/C1=C\C=C\c1ccccc1[N+](=O)[O-]	7
Cc1ccc(C)c(N2CCN(C(=O)Nc3ccc4c(c3)N(C)C(=O)CS4)CC2)c1	9
O=C(O)Cc1sc(Nc2ccc(Cl)cc2)nc1-c1cccs1	4
N=c1n(CC(=O)c2ccc([N+](=O)[O-])cc2)c2ccccc2n1Cc1ccc(Cl)cc1	13
O=C(NC1CC1)C1=C[C@@H](c2coc3ccccc3c2=O)C[C@@H](OCCCCO)O1	20
N#C/C(=C\c1ccccc1)C(=O)OCC(=O)N1CCCC1	6
COc1ccccc1CNC(=O)COC(=O)Cc1ccsc1	10
O=C(O)c1ccccc1C(=O)Nc1ccc(-n2nccc2C(F)(F)F)cc1	23
Cc1cc(C2=NNC(=NC3CC3)SC2)c(C)n1-c1ccccc1	20
Nc1c2nc(-c3ccccc3Cl)[nH]c(=O)c2nc(=O)n1-c1ccccc1	13
COc1ccc(C(=O)N/N=C/c2ccc(OC)c(CSc3ccccn3)c2)cc1	13
Cc1ccc(C(=O)NCCN2C3=NC[C@H](C(C)C)N3C[C@H]2Cc2ccc(O)cc2)cc1Br	19
NS(=O)(=O)c1ccc(N=NN2CCCCC2)cc1	10
Cc1[nH]c2ccccc2c1SCCNC(=O)c1ccc(S(=O)(=O)N2CCCC2)cc1	4
CCCC(=O)Nc1ccc(C(=O)Nc2ccc([N+](=O)[O-])cc2OC)cc1	14
COc1cc(/C=N/NS(=O)(=O)c2ccccc2)ccc1OS(=O)(=O)c1ccc(C)cc1	21
COc1cc(/C=N/NC(=O)C(=O)NCC2CCCO2)ccc1OCC(=O)N1CCOCC1 (centres undefined)	14
CCN(CC)CC(=O)Nn1c(C)nc2c(ncn2-c2ccccc2)c1=O	8
COc1cc(/C=N/NC(=O)C(=O)Nc2ccccn2)ccc1O	6
Cc1nc2c(cc1C#N)C(=O)c1ccccc1-2	7
CN1CCN(c2nc3c(c(=O)n(C)c(=O)n3C)n2CCSc2nc3ccccc3s2)CC1	9
O=C(Nc1ccccc1F)c1coc(=O)c(Br)c1	12
O=C(CN(Cc1cccs1)S(=O)(=O)c1ccc(S(=O)(=O)NC2CCCCC2)cc1)Nc1ccccc1	10
CCn1c(Oc2ccc(F)cc2)nc2c1c(=O)n(C)c(=O)n2C	0
Cc1nonc1CC(=O)N1CCCC(C(=O)c2ccc(Cl)cc2)C1 (centres undefined)	14
FC(F)Oc1ccc(NC(=S)Nn2cnnc2)cc1	2
O=c1c2ccccc2sc2ccc(Cl)cc12	7
CCn1c(CN2CCN(CCO)CC2)nc2ccccc21	14
CCc1ccc(-n2c(SCC(=O)N3CCC(C(=O)O)CC3)nnc2-c2ccncc2)cc1	4
CCOc1ccccc1NC(=O)NCc1cccnc1	5
CCC1CCCCN1C(=S)NC(=O)c1cccs1 (centres undefined)	8
COc1ccc(N/C=C/C(=O)c2ccc3c(c2)OCO3)cc1OC	16
COC1=CCC2([N+](=O)[O-])CN(CC(=O)O)CC1([N+](=O)[O-])C2 (centres undefined)	17
Cc1ccc2c(c1)COc1c3ccc(C(=O)N[C@@H](C)CO)cc3nn1-2	-1
Cc1c2c(nc3ccccc13)CCC(C)C2 (centres undefined)	-1

5 entries from above, arranged by length of the SMILES, rising.
SMILES	Biofilm kill mix
O=c1c2ccccc2sc2ccc(Cl)cc12	7
CCC1CCCCN1C(=S)NC(=O)c1cccs1 (centres undefined)	8
Cc1nonc1CC(=O)N1CCCC(C(=O)c2ccc(Cl)cc2)C1 (centres undefined)	14
CCN(CC)CC(=O)Nn1c(C)nc2c(ncn2-c2ccccc2)c1=O	8
COc1cc(/C=N/NS(=O)(=O)c2ccccc2)ccc1OS(=O)(=O)c1ccc(C)cc1	21

(more compounds)
SMILES	Biofilm kill mix
CCOC(=O)c1ccc(NC(=O)c2nc[nH]c2C(=O)N(C)Cc2ccccc2)cc1	10
CN(C(=S)SCc1ccccc1)C1CCS(=O)(=O)C1 (centres undefined)	6
O=C(O)c1ccc(NC2=C(Cl)C(=O)c3ccccc3C2=O)cc1	16
COC(=O)Cc1c[nH]c2cccc(OCC(O)CN(Cc3ccccc3)C(C)C)c12 (centres undefined)	12
CCOc1ncccc1C(=O)Nc1ccc2c(c1)OCO2	12
COc1ccccc1-c1nnc2sc(COc3ccccc3)nn12	11
COc1cc(/C=C2/NC(=O)N(Cc3ccccc3F)C2=O)ccc1O	8
COc1ccc(N2CCN(S(=O)(=O)c3ccc(OC)cc3)CC2)cc1	3
O=C(c1ccccc1Sc1c(Cl)cccc1[N+](=O)[O-])N1CCOCC1	11
OC(CNCC1(N2CCCCC2)CCCCC1)COc1ccc(Cl)cc1Cl (centres undefined)	2
Cc1ccc2[nH]c(C(=O)NN=C3CCCCC3)c(-c3ccccc3)c2c1	2
Cc1ccc2[nH]c(O)c(N=Nc3nc4ccccc4s3)c2c1	16
COc1ccc(N2C(=O)CC(N(CCc3ccccc3)C(=O)/C=C/C(=O)O)C2=O)cc1 (centres undefined)	20
CCC(=O)NC1=C(Cl)C(=O)C(NC(=O)CC)=C(Cl)C1=O	15
CCN(CC)S(=O)(=O)c1ccc(O)c(C(=O)OCC(=O)Nc2ccc(OC(F)(F)F)cc2)c1	2
Cc1ccccc1-n1c(C)nnc1SCC(=O)NNC(=O)c1ccccc1	2
Cc1cccn2cc(CCNS(=O)(=O)c3cccc([N+](=O)[O-])c3)nc12	9
CCOc1ncccc1C(=O)Nc1ccc(F)cc1	2
COc1ccc(CC2(CO)CCN(Cc3cnn(-c4ccccc4OC)c3)CC2)cc1	11
O=C(Cc1ccccc1)N1CCN(S(=O)(=O)c2ccc([N+](=O)[O-])cc2)CC1	14
Cc1ccc(OC(=O)c2sc(Cl)nc2C)cc1C	19
Cn1cccc1C(C#N)(CC#N)c1cccc(F)c1C#N (centres undefined)	13
CCNC(=S)Nc1ccc(Cl)c([N+](=O)[O-])c1	8
COc1ccc(CCNC(=O)C(=O)N/N=C/c2cccs2)cc1OC	8
CC(C)n1cc(/C=C2/NC(=O)N(c3cccc(Cl)c3)C2=O)c2ccccc21	11
COc1ccc(C2CC2/C(C)=N/OC(=O)C2CC2)cc1 (centres undefined)	-7
CCOc1ccc(S(=O)(=O)N/N=C2/CCCC(=O)C2)cc1	7
O=C(Nc1ccc([N+](=O)[O-])cc1)c1ccccc1F	6

Source: PubChem
